Source: PubChem
RE007 growth inh: less growth of the S. pombe RE007 Vpr strain; actives 0.21% (n = 360,000); Potency, µM (highest dose often 92.2 µM), for the others: top-dose activity change, negative = less growth; AID 651644; S. pombe RE007 Vpr strain, BacTiter-Glo ATP luminescence, 24 h; control for the full effect not named in the record; active = well fitted falling curve with a large enough effect; inconclusive = small, poorly fitted or top-dose-only effect; inactive = no such curve, though single readings can be large or run the other way;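 note: nearly all actives have a fitted effect of over 50% in size; the assay follows cell death caused by Vpr and the record does not say whether a fall means rescue or toxicity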
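Fission yeast RE007 carrying one integrated HIV-1 vpr copy, seeded at OD 0.01 in PMG+AL medium with 23 nL pinned compound. Grown 24 h at 30 degrees; viability read by BacTiter-Glo luminescence after 5 min.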
2A StopGo: FMDV 2A StopGo reporter, luciferase signal; Potency, µM (titrated, usually from 57.9 µM), without a hit: at the highest dose signal change, negative = less light; human cells with a luciferase reporter of 2A StopGo recoding; control for the full effect not named in the record; actives 1.2% (n = 410,000); AID 1159524; active = well fitted falling curve with a large enough effect; inconclusive = small, poorly fitted or top-dose-only effect; inactive = no such curve, though single readings can be large or run the other way; tested in HEK293T cells; note: nearly all actives have a fitted effect of over 45% in size; luciferase light after 4 h
Numbers without * were called inactive; [ ] = another dose, or the depositor's remark. % is set by controls: 0 for no effect and ±100 for the full control effect; potency is the fitted concentration of half-maximal effect. These rows are one share of the data; count on the stated rates, not on these rows.

Screening COc1ccc(Br)c(Cn2c(C)c(C(=O)NCc3ccc4c(c3)OCCO4)sc2=O)c1 returned RE007 growth inh 8%[18.4 µM] and 2A StopGo -22%.
O=C(COC(=O)c1c[nH]c2ccccc12)NCc1ccccc1 was read as RE007 growth inh 10% and 2A StopGo -6%.
Screening CCOC(=O)CC(=O)Nc1cc2ccc(OC)c(OC)c2cc1C(=O)OCC returned RE007 growth inh -9% and 2A StopGo -9%.
For C#CCOCCOCCOCCNc1nc(N2CCN(C(=O)[C@H]([C@@H](C)CC)n3cc(CCC(=O)O)nn3)CC2)nc(N2CCN(C(=O)[C@H](CCCCN)n3cc(CCCC)nn3)CC2)n1 the results were RE007 growth inh 6% and 2A StopGo -15%.
For FC(F)(F)c1cc(Cl)c2nc(-c3ccccc3)c(Cc3cccc(Cl)c3)n2c1 the results were RE007 growth inh 1% and 2A StopGo -1%.
`CN(C)CCSC1c2ccccc2CSc2ccccc21` (stereo not drawn) gave RE007 growth inh 0% and 2A StopGo -13%.
For COC(=O)c1ccc(N2C(c3cc(OC)cc(OC)c3)=Cc3ccc(-c4ccc(C(N)=O)cc4)cc3C2CC(=O)C2CC2)cc1 (stereo not drawn) the results were RE007 growth inh 8% and 2A StopGo -9%.
Screening CC1CC(C)CN(CC(O)COC2CC(C)CC(C)(C)C2)C1 (stereo not drawn) returned RE007 growth inh -5% and 2A StopGo -6%.
Screening COC(=O)c1ccc2nc(-c3ccc(F)cc3)c(Cc3ccc(OC)cc3C)n2c1 returned RE007 growth inh -17% and 2A StopGo 4%.
CC(C(=O)N1CCc2ccccc21)N1CCN(S(=O)(=O)c2ccc3c(c2)OCCCO3)CC1 (stereo not drawn) was read as RE007 growth inh -2% and 2A StopGo inconclusive.
Screening C[C@@H]1CN([C@@H](C)CO)C(=O)CCCn2nncc2CO[C@@H]1CN(C)C(=O)Nc1cccc(C(F)(F)F)c1 returned RE007 growth inh 17% and 2A StopGo inconclusive.
`CSc1cccc(NC(=O)C2CCCN(S(C)(=O)=O)C2)c1` (stereo not drawn) gave RE007 growth inh -12% and 2A StopGo 2%.
`OCCc1ccc(O)cc1` gave RE007 growth inh 14%[18.4 µM] and 2A StopGo -13%.
Screening CCOc1cccc(CN2CCC(Oc3ccc(C(=O)N4CCCC4)cc3)CC2)c1O returned RE007 growth inh 1% and 2A StopGo -13%.
Nc1c(C(=O)NCC2CCCO2)c2nc3ccccc3nc2n1/N=C/c1ccncc1 (stereo not drawn) was read as RE007 growth inh 2% and 2A StopGo -4%.
Screening COc1ccccc1-c1csc(C(NC(C)=O)c2ccccc2)n1 (stereo not drawn) returned RE007 growth inh 47% and 2A StopGo -12%.
Screening CCOC(=O)C1=CC[C@@H](c2ccccc2)N(S(=O)(=O)c2ccc(C)cc2)[C@H]1C returned RE007 growth inh 6% and 2A StopGo -6%.
For NC(=O)CC(NC(=O)Cc1cccc2ccccc12)c1ccc(NC2CCCC2)c([N+](=O)[O-])c1 (stereo not drawn) the results were RE007 growth inh 12% and 2A StopGo 6%.
For COc1cccc(NC(=O)C2(C)CCN2C(=O)CC2CC2)c1 (stereo not drawn) the results were RE007 growth inh 1%[18.4 µM] and 2A StopGo -17%.
`COc1ccc(-n2nnnc2C(c2ccccc2OC(F)(F)F)N2CCC3(CC2)C(=O)NCN3c2ccccc2)cc1` (stereo not drawn) gave RE007 growth inh -14% and 2A StopGo -17%.
`COc1ccccc1NC(=O)N(C)C[C@@H]1OCc2cnnn2CCCC(=O)N([C@@H](C)CO)C[C@@H]1C` gave RE007 growth inh 22% and 2A StopGo 11%.
CN(C(=O)c1ccc(NC(=O)Cc2ccc(NC(=O)C3CCN(C(=O)C4CC4)CC3)cc2)cc1)C1CCCC1 was read as RE007 growth inh 1% and 2A StopGo 13%.
CCc1ccc(C2CC3C(CN2S(=O)(=O)c2ccc(C)cc2)[C@@H](O)C[C@@H](c2ccc(CC)cc2)N3S(=O)(=O)c2ccc(C)cc2)cc1 (stereo partly drawn) was read as RE007 growth inh 4% and 2A StopGo -11%.
For O=C(NC1CC1)c1ccc2nc([C@@H]3O[C@H](CO)[C@H](O)[C@H](O)[C@H]3O)[nH]c2c1 the results were RE007 growth inh 11%[18.4 µM] and 2A StopGo -5%.
Screening C[C@@H](c1ccccc1)N1C[C@H](COCc2ccccc2)Oc2cc(N3CCC[C@@H]3CO)ccc2S1(=O)=O returned RE007 growth inh 6% and 2A StopGo -1%.
For O=c1oc2ccccc2c(O)c1Sc1ccc(Cl)cc1 the results were RE007 growth inh -5% and 2A StopGo -5%.
Screening N#C/C(=C\c1cccn1S(=O)(=O)c1cccc([N+](=O)[O-])c1)S(=O)(=O)c1ccc(F)cc1 returned RE007 growth inh 4% and 2A StopGo -3%.
Screening Cc1ccc(C(=O)NCCc2nnc3ccc(SCC(=O)Nc4nnc(C)s4)nn23)cc1 returned RE007 growth inh -15% and 2A StopGo -18%.
For NCc1csc(Nc2nncc3ccccc23)n1 the results were RE007 growth inh -5%[18.4 µM] and 2A StopGo 4%.
For COc1cccc(C(C)(O)c2nc(-c3cc(F)cc(F)c3)cs2)c1 (stereo not drawn) the results were RE007 growth inh -3%[18.4 µM] and 2A StopGo inconclusive.

Pulled one by one from the entries so far (five):
For COc1cccc(NC(=O)C2(C)CCN2C(=O)CC2CC2)c1 (stereo not drawn) the results were RE007 growth inh 1%[18.4 µM] and 2A StopGo -17%.
For NC(=O)CC(NC(=O)Cc1cccc2ccccc12)c1ccc(NC2CCCC2)c([N+](=O)[O-])c1 (stereo not drawn) the results were RE007 growth inh 12% and 2A StopGo 6%.
For O=c1oc2ccccc2c(O)c1Sc1ccc(Cl)cc1 the results were RE007 growth inh -5% and 2A StopGo -5%.
`COc1ccc(-n2nnnc2C(c2ccccc2OC(F)(F)F)N2CCC3(CC2)C(=O)NCN3c2ccccc2)cc1` (stereo not drawn) gave RE007 growth inh -14% and 2A StopGo -17%.
Screening Cc1ccc(C(=O)NCCc2nnc3ccc(SCC(=O)Nc4nnc(C)s4)nn23)cc1 returned RE007 growth inh -15% and 2A StopGo -18%.

(more compounds)
C[C@H](NC(=O)C1CCN(S(=O)(=O)c2ccccc2)CC1)C(=O)NCc1ccncc1 was read as RE007 growth inh -8% and 2A StopGo -20%.
Screening O=C(NCc1nnnn1-c1ccc(F)cc1)C(=O)c1c[nH]c2ccccc12 returned RE007 growth inh -15% and 2A StopGo -13%.
Nc1ccn([C@@H]2O[C@H](C(=O)NCC(F)(F)F)[C@@H](O)[C@H]2O)c(=O)n1 was read as RE007 growth inh 5% and 2A StopGo -16%.
For CC(=O)c1ccc(Nc2nc(C(N)Cc3ccc(N)cc3)cs2)cc1 (stereo not drawn) the results were RE007 growth inh -14% and 2A StopGo 1%.
CS(=O)(=O)/C(C#N)=C/c1cccn1S(=O)(=O)c1cccc2ccccc12 was read as RE007 growth inh 3% and 2A StopGo 0%.
CC(C)NC(=O)N(C)C[C@H]1Oc2cc(Br)ccc2S(=O)(=O)N([C@H](C)CO)C[C@H]1C was read as RE007 growth inh 14% and 2A StopGo 41%[activator].
For O=C(Nc1cccc2ccccc12)c1ccco1 the results were RE007 growth inh 9%[18.4 µM] and 2A StopGo -4%.
`CC(=O)c1cccc(OCc2cc(C(=O)N(C)Cc3nccs3)no2)c1` gave RE007 growth inh 13% and 2A StopGo 36%[activator].
Cc1cc(F)ccc1-c1cc(C(=O)NCc2cc(C(F)(F)F)cc(C(F)(F)F)c2)[nH]n1 was read as RE007 growth inh -11% and 2A StopGo 0%.
Screening Cc1ccc(NC(=O)Cn2sc3ccccc3c2=O)cc1 returned RE007 growth inh -38% and 2A StopGo -13%.
For COc1ccccc1N(C)S(=O)(=O)c1ccc(C(=O)Nc2cc(OC)c(OC)c(OC)c2)cc1 the results were RE007 growth inh 7% and 2A StopGo inconclusive.
COc1ccc(CN2C(=O)C(CC(=O)NCCCN(C)C)CC(C(=O)N3CCCCCC3)=C2C)cc1 (stereo not drawn) was read as RE007 growth inh -4% and 2A StopGo -20%.
CC1(C(=O)NCCC#N)CCN1C(=O)c1ccccc1CCc1ccccc1 (stereo not drawn) was read as RE007 growth inh 13% and 2A StopGo -17%.
For COc1ccc(NC(=O)C[C@H]2C(=O)N(c3ccc(OC)cc3)C[C@@H]2CSC)cc1 the results were RE007 growth inh 0% and 2A StopGo 0%.
For O=C(C[C@@H]1C[C@@H]2c3cc(NC(=O)C4CCOCC4)ccc3O[C@@H]2[C@H](CO)O1)NCc1ccccn1 the results were RE007 growth inh -17% and 2A StopGo -27%.

By substructure, the compounds so far containing bromine
Screening COc1ccc(Br)c(Cn2c(C)c(C(=O)NCc3ccc4c(c3)OCCO4)sc2=O)c1 returned RE007 growth inh 8%[18.4 µM] and 2A StopGo -22%.
CC(C)NC(=O)N(C)C[C@H]1Oc2cc(Br)ccc2S(=O)(=O)N([C@H](C)CO)C[C@H]1C was read as RE007 growth inh 14% and 2A StopGo 41%[activator].

(cont.)
`COc1cc(-c2coc3c(C(=O)Nc4ccc(C(C)C)cc4)cccc23)ccc1O` gave RE007 growth inh 23% and 2A StopGo 9%.
`CC(C)NC(=O)N(C)C[C@@H]1OCc2ccccc2-c2c(n(C)c3ccccc23)C(=O)N([C@@H](C)CO)C[C@@H]1C` gave RE007 growth inh -25% and 2A StopGo -20%.
`CN(C)C(CNC(=O)c1cc(Br)c(Br)s1)c1ccco1` (stereo not drawn) gave RE007 growth inh 3% and 2A StopGo 8%.
Screening Cc1ccc(NC(=O)C2(C)CCN2C(=O)Cc2ccc(C(C)C)cc2)cc1 (stereo not drawn) returned RE007 growth inh -9%[18.4 µM] and 2A StopGo inconclusive.
C[C@@H]1CN([C@H](C)CO)C(=O)CCCn2nncc2CO[C@H]1CN(C)C(=O)Oc1ccccc1 was read as RE007 growth inh -20% and 2A StopGo -16%.
`CCOC(=O)[C@H]1[C@H]2COc3ccc(Br)cc3[C@H]2N2C(=O)CN(Cc3ccc(C)cc3)C(=O)[C@@]12C` gave RE007 growth inh 7% and 2A StopGo -20%.
COc1ccc2c(c1)CCC1(C)CC(=O)C(Br)=C21 (stereo not drawn) was read as RE007 growth inh -2% and 2A StopGo 0%.
Screening Cn1c(=O)c2cc(NC(=O)CCc3cccnc3)ccc2n1Cc1cccc(C(F)(F)F)c1 returned RE007 growth inh 15%[18.4 µM] and 2A StopGo -28%.
Cc1ccc(NC(=O)CSc2nnc(NC3CC3)s2)cc1S(=O)(=O)N1CCOCC1 was read as RE007 growth inh -6% and 2A StopGo -1%.
For CCCCNC(=O)C1(C)CCN1C(=O)c1ccc(F)cc1Cl (stereo not drawn) the results were RE007 growth inh 6% and 2A StopGo 1%.
Screening COc1cc2nc3n(c(=O)c2cc1OC)-c1cc2ccccc2cc1C(=O)NC3Cc1ccccc1 (stereo not drawn) returned RE007 growth inh 14% and 2A StopGo -22%.
Screening C[C@@H]1CN([C@H](C)CO)C(=O)CCCn2nncc2CO[C@@H]1CN(C)C(=O)Cc1ccccc1 returned RE007 growth inh 10% and 2A StopGo -23%.
`COCCCn1c(C(=O)NC2CCCCC2)cc2c(=O)n3cccc(C)c3nc21` gave RE007 growth inh -9% and 2A StopGo inconclusive.
Screening Nc1nc(-c2ccccc2)nc2nonc12 returned RE007 growth inh -7% and 2A StopGo 22%.
CC1Cc2[nH][nH]c(=O)c2C(C2CC2)O1 (stereo not drawn) was read as RE007 growth inh 4% and 2A StopGo -15%.
For O=C(Nc1ccccc1)c1cc(C2CCCN(C(=O)CCc3ccccc3)C2)on1 (stereo not drawn) the results were RE007 growth inh -18% and 2A StopGo 31%[activator].
Screening CCOC(=O)c1ccc(S(=O)(=O)N2CCN(C3CC(=O)N(c4ccc(OC)cc4)C3=O)CC2)cc1 (stereo not drawn) returned RE007 growth inh -4% and 2A StopGo -7%.
CC1(Oc2cccc(Cl)c2)CCN(Cc2ccc(OC(F)(F)F)cc2)C1 (stereo not drawn) was read as RE007 growth inh -25% and 2A StopGo -1%.
Screening CCc1nc2ccc(C(=O)Nc3cc(-c4ccccc4)ccc3OC)cn2c1N(C)C(=O)c1cccc(OC)c1 returned RE007 growth inh -4% and 2A StopGo -14%.
`CC1OC(C2CCCCC2)Cc2[nH]c(=S)[nH]c(=O)c21` (stereo not drawn) gave RE007 growth inh -17% and 2A StopGo -23%.
For O=C(NCc1ccccn1)c1[nH]c(C(F)(F)F)nc1-c1ccccc1 the results were RE007 growth inh 10% and 2A StopGo -17%.
`Cc1cc(C(O)c2ncc(-c3cccc4ccccc34)[nH]2)ccc1F` (stereo not drawn) gave RE007 growth inh -8% and 2A StopGo 30%[activator].
Screening COc1ccc(S(=O)(=O)NC(=O)C2(C)CCN2C(=O)CCC2CCCC2)cc1OC (stereo not drawn) returned RE007 growth inh 0% and 2A StopGo -16%.
`CC(C)(C)c1ccc(-n2ncc3c2CCCC3NC(=O)CCC2=NNC(=O)CC2)cc1` (stereo not drawn) gave RE007 growth inh 4% and 2A StopGo inconclusive.
For CCCCn1nnnc1C(c1ccccc1)N1CCN(c2ccccn2)CC1 (stereo not drawn) the results were RE007 growth inh -8% and 2A StopGo -3%.
For O=C(Nc1cccc(Cl)c1)c1csc([C@@H]2C[C@H](O)[C@@H](CO)O2)n1 the results were RE007 growth inh -14%[18.4 µM] and 2A StopGo 19%.
`CCCNC(=O)C1(C)CCCN(C(=O)c2ccc(C)c(F)c2)C1` (stereo not drawn) gave RE007 growth inh 3%[18.4 µM] and 2A StopGo -4%.
